Sfp inh: Sfp phosphopantetheinyl transferase inhibition; Q9F4F7; Biochemical Sfp PPTase activity, qHTS; Potency, µM, for inactives: max response, negative = inhibition, usual class: inhibitors; 3.5% of 310,000 active; AID 1490; active = well fitted inhibition curve with a large enough effect; inconclusive = small, poorly fitted or top-dose-only effect, or another doubt; inactive = no such curve, though single readings can be large or run the other way;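 also: the enzyme is Sfp with the accession as filed and its product quenches rhodamine fluorescence; potency is read from the fitted curve at half-maximal effect; 0% = enzyme reaction without inhibitor and -100% = no enzyme wells; top concentration of the series not given in the record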
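Sfp 15 nM + cpd, 15 min RT; start w/ rhodamine-CoA 5 uM, BHQ-2-YbbR 12.5 uM (final); 50 mM Hepes pH 7.6, 10 mM MgCl2, 0.01% NP-40, 0.01% BSA; read 525/598 nm at 0 and 30 min.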
Menin MLL FP FL: displaces fluorescein MLL peptide from human menin | Fluorescence polarization, fluorescein-MLL peptide displacement from menin | FP activity change, % at 61.4 µM | 290,000 tested, under 10 active | AID 1766; inconclusive = falling polarisation curve, or a change in total fluorescence; inactive = total fluorescence flat and polarisation flat or rising; no compound was filed as active; the % refers to the polarisation; negative = inhibition;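 also: % of control where 0% means no effect; inhibitors lower the polarisation; unlabelled MLL peptide was the positive control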
gsp ag: gsp mutant agonism | gsp mutant cells, cAMP HTRF, 30 min; control for the full effect not named in the record | Potency, µM (titrated, usually from 76.9 µM), for the others: top-dose activation (cAMP increase), hits mostly activators | 0.13% of 340,000 active; active = well fitted activation curve with a large enough effect; inconclusive = small, poorly fitted or top-dose-only effect, or another doubt; inactive = no such curve, though single readings can be large or run the other way; cell line not stated here;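 also: phosphodiesterase inhibitor Ro 20-1724 added with compounds to block cAMP breakdown; potency is read from the fitted curve at half-maximal effect; nearly all actives have a fitted effect of over 60% in size; about a fifth of the inactives were tested at one dose only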
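Cells in DMEM/10% FBS with G418 were pretreated with compounds in DMSO plus […] (300 uM stock) for 30 min at 37C. cAMP was measured by HTRF (cAMP-d2 plus anti-cAMP antibody-K) after 30 min at room temperature.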
CtBP-E1A blk: blocks the CtBP interaction with E1A; AlphaScreen GST-E1A/His-CtBP binding, 1536-well; stronger effect = lower value; control for the full effect not named in the record; activity change, % (concentration not given with the values); 0.49% of 340,000 active; AID 651724; in the data active means activity change below about -65%; inconclusive means about -30% to -65%; inactive means above about -30%; also: % is scaled to controls: 0 for no effect and ±100 for the full control effect
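In 5 uL wells, 23 nL compound meets equimolar GST-E1A and His-CtBP (5X stock 125 nM each) for 2 h, 37 °C. Beads (5X, 50 ug/mL) then 1 h, 37 °C, dark.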
gsp antagonist: antagonizes gsp, the McCune-Albright syndrome mutation; gsp-mutant cells, cAMP HTRF, 30 min; control for the full effect not named in the record; Potency, µM (titrated, usually from 76.9 µM), without a hit: at the highest dose activity change, negative = inhibition, usual class: inhibitors; 0.4% of 340,000 active; active = falling curve of any shape with a large fitted effect; inconclusive = falling curve, mostly with a smaller effect; inactive = flat or rising curve; cell line not stated here;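 also: intracellular cAMP measured with PDE inhibitor Ro 20-1724 present during compound exposure; potency is read from the fitted curve at half-maximal effect; % is scaled to controls: 0 for no effect and ±100 for the full control effect; nearly all actives have a fitted effect of over 65% in size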
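HTRF cAMP measurement after 30 min RT detection following 30 min, 37C compound treatment alongside […] (added as 300 uM solution) in G418-selected cells seeded at 2000/well and grown 16–24 h.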
ClpP mod: qHTS Assay for Activators of ClpP | AID 651965, 2013 | ATP-dependent Clp protease proteolytic subunit (Bacillus subtilis (strain 168)), P80244 | purified B. subtilis ClpP, FRET peptide cleavage, 20 min | Potency, µM (top dose mostly 57.5 µM), for the others: at the top dose activity change, negative = active | 1.9% of 340,000 active; active = well fitted falling curve with a large enough effect; inconclusive = small, poorly fitted or top-dose-only effect; inactive = no such curve, though single readings can be large or run the other way; also: potency is read from the fitted curve at half-maximal effect; the source files actives as falling curves though it sought activators and does not explain the sign; nearly all actives have a fitted effect of over 65% in size; many hits overshoot -100%
Target sequence (P80244 whole entry, looked up): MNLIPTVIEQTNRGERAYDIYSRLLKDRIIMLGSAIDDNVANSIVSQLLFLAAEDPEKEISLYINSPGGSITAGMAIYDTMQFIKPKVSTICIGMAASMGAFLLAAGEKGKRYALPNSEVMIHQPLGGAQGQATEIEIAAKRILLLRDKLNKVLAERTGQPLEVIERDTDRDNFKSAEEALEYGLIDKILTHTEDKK
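Buffer: 100 mM Tris/HCl pH8, 100 mM KCl, 0.05% low protease BSA, 2.5% glycerol, 0.01% Tween-20. ClpP 10 microg/mL final; 20 min RT; delta FRET normalized to ADEP and DMSO controls.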
TRPV1 potentiator: potentiators of human vanilloid receptor 1 (TRPV1); TRPV1-expressing cells, Fluo-8 calcium influx, capsaicin EC20 potentiation; host cell line not named in the record; control for the full effect not named in the record; potentiation, % at 8.33 µM; Q8NER1; 0.02% of 320,000 active; active means potentiation above 80%; inconclusive means 30% to 80%; inactive means below 30%; also: 0% is about no effect
Target sequence (Q8NER1 whole entry, looked up): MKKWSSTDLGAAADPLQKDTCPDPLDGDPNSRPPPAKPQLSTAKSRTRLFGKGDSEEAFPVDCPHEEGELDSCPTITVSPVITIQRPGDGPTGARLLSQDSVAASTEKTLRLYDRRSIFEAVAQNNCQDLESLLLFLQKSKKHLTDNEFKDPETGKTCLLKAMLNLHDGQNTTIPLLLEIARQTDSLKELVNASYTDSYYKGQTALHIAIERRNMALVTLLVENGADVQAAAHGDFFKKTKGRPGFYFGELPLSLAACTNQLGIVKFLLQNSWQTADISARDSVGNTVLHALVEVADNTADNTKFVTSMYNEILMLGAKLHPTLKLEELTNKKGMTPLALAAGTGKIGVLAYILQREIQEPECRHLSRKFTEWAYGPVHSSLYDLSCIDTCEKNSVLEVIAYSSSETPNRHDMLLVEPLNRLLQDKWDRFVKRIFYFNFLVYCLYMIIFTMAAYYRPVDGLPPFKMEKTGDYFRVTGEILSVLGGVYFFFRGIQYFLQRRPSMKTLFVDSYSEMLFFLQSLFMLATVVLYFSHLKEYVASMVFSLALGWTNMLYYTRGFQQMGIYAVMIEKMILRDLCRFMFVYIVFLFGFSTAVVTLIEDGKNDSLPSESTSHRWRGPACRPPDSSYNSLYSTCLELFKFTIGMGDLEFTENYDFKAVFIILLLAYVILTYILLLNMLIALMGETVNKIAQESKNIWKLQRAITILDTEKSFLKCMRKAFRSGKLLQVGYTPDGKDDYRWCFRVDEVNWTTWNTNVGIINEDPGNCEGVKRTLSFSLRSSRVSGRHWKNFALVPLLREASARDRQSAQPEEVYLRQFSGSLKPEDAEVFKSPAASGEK
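Cells expressing TRPV1 were dye-loaded with Fluo-8 and read kinetically: 10 s baseline, 3 min after compound (agonist portion), then 2 min after EC20 capsaicin (allosteric enhancer portion). Calcium-bound dye fluorescence at 480/520 nm.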
Starred values were filed as active, the others as inactive; ? = inconclusive; · = no result given; & = joins results of further samples; ! = a repeat was not active; [ ] = remark or other dose.

Short keys – A = Sfp inh; B = Menin MLL FP FL; C = gsp ag; D = CtBP-E1A blk; E = gsp antagonist; F = ClpP mod; G = TRPV1 potentiator
> COC(=O)N/N=C/c1cn(CCOc2ccccc2)c2ccccc12
  A = 1% | B = 1.4 | C = -12%[15.4 µM] | D = -9 | E = 14% | F = · | G = -1
> COc1ccc(CCNC(=O)CCS(=O)(=O)c2ccc3c(c2)NC(=O)CS3)cc1OC
  A = 16% | B = · | C = -4% | D = -2 | E = 1% | F = 2.1% | G = 0
> CCOC(=O)c1n[nH]c(=O)c2ccccc12
  A = 2% | B = -5.7 | C = -9% | D = -3 | E = -1% | F = · | G = -4
> O=C(N/C(=C/c1ccc([N+](=O)[O-])cc1)C(=O)N1CCOCC1)c1ccco1
  A = 17% | B = · | C = -4%[15.4 µM] | D = 2 | E = -8% | F = 1.3% | G = 17
> CN(C)S(=O)(=O)c1ccc(NC(=S)NC(=O)Cc2ccccc2)cc1
  A = ? | B = 0.5 | C = -20% | D = -4 | E = -30% | F = · | G = -16
> CC(C)C(C)(C#N)NC(=O)CSc1nc2scc(-c3ccccc3)c2c(=O)[nH]1 (stereo not given)
  A = ? | B = 8.4 | C = 2%[15.4 µM] | D = -5 | E = -10% | F = -4.0% | G = 17
> CC(C)(C)CN1C(N)=NC[C@@H]1Cc1ccc(O)cc1
  A = 3% | B = 0.6 | C = -10% | D = -12 | E = 14% | F = 0.9% | G = -11
> Cc1nn(CC(=O)N(C)C)c(C)c1S(=O)(=O)N1CCOCC1
  A = · | B = · | C = -47%[inhibitor] | D = 9 | E = 11% | F = 1.0% | G = -9
> CCCCC1=CC2=CC(=O)C(C)(OC(=O)CC)C(=O)C2=CN1Cc1ccccc1 (stereo not given)
  A = -13%&3% | B = 2.3[11.7 µM] | C = · | D = -3 | E = -11% | F = -0.4% | G = ?
> COc1ccc2cc(S(=O)(=O)N3CCCCC3)ccc2c1S(=O)(=O)N1CCCCC1
  A = 0% | B = 1.2 | C = -3% | D = 13 | E = 0% | F = -0.3% | G = -22
> CCCOc1ccccc1C1CC(=O)Nc2cc3c(cc21)OCCO3 (stereo not given)
  A = 2% | B = 2.4 | C = 25% | D = -11 | E = 23% | F = 0.8% | G = -8
> CC1(C)CC(=O)C=C(Nc2ccc(F)c(Cl)c2)C1
  A = 8% | B = 2.8 | C = 23% | D = 7 | E = -3% | F = 1.8% | G = 7
> c1ccc(-c2oc3ncnc(N4CCOCC4)c3c2-c2ccccc2)cc1
  A = 9% | B = -0.1 | C = · | D = · | E = · | F = · | G = 2
> CCOC(=O)C1CCN(C(=O)Cn2ncc3c([nH]c4ccccc43)c2=O)CC1
  A = 2% | B = -5.4 | C = 27% | D = 4 | E = -6% | F = -23%&-11% | G = -5
> Nc1nn2cc(-c3ccc(Br)cc3)nc2c2ccccc12
  A = -14% | B = 3.8 | C = ? | D = 3 | E = -21% | F = 4.1% | G = 20
> COC(=O)c1c(C(=O)OC)c2cc(C)ccn2c1Cl
  A = 18% | B = 2.8 | C = -44%[inhibitor] | D = -3 | E = 3% | F = -27% | G = 7
> CC1CCCCC1NC(=O)CSc1nnc(CN2CCOCC2)n1C (stereo not given)
  A = 11% | B = 1.0 | C = 11% | D = 8 | E = 15% | F = 1.1% | G = 2
> COc1ccc(OC)c(C(=O)NC2CCCc3c2cnn3-c2cc(C)cc(C)c2)c1 (stereo not given)
  A = · | B = · | C = -55%[inhibitor] | D = -6 | E = · | F = 4.1% | G = ·
> COc1ccc2oc(=Nc3ccccc3)c(-c3nc4ccccc4[nH]3)cc2c1
  A = -18% | B = -0.9 | C = -9% | D = -8 | E = 3% | F = -2.6% | G = -2
> C/C(=N/Nc1nc(C)cc(C)n1)c1ccc(Br)cc1
  A = 20% | B = -1.1 | C = -19% | D = 1 | E = -1% | F = · | G = -12
> COC1CCCN(Cc2c(C(=O)N3CCN(C4CCCCC4)CC3)nc3ccccn23)C1 (stereo not given)
  A = 12% | B = · | C = 1% | D = 1 | E = 16% | F = -17% | G = -14
> CCCN1Cc2cccc(C(=O)Nc3ccc4c(c3)OCCO4)c2C1=O
  A = -4% | B = 3.1 | C = 2% | D = 7 | E = 12% | F = 0.0% | G = ·
> CCOC(=O)N1CCN(CC(O)c2ccc3cc[nH]c3c2)CC1 (stereo not given)
  A = -8% | B = 4.7 | C = -24% | D = -2 | E = -2% | F = -4.0% | G = ·
> O=C(COC(=O)c1ccncc1)Nc1cc(Cl)c(Cl)cc1Cl
  A = 10% | B = 5.0 | C = · | D = · | E = · | F = · | G = 2
> COc1cccc(NC(=O)CN(C)C(=O)CC2CC3CCC2C3)c1 (stereo not given)
  A = · | B = · | C = -45%[inhibitor] | D = 10 | E = 10% | F = 0.8% | G = -18
> O=S(=O)(c1ccc(NC(=S)NC2CCCC2)cc1)N1CCCC1
  A = -8% | B = -1.5 | C = 19%[15.4 µM] | D = 4 | E = 7% | F = · | G = -17
> COc1ccc(NC(=O)CSc2nnc(CCC(=O)O)c(=O)n2N)cc1
  A = -4% | B = 5.0 | C = -4% | D = · | E = 64%[activator] | F = -0.3% | G = 0
> O=C(NCc1ccncc1)c1cc(C(=O)C2CC2)c[nH]1
  A = 10% | B = 2.0 | C = 23% | D = 9 | E = 13% | F = 2.0% | G = -28
> CCOc1cc(C(=O)Nc2cc(C)ccc2OC)ccc1OCC(=O)N1CCCCC1
  A = -6% | B = · | C = 7% | D = -9 | E = -11% | F = -9.5% | G = -18
> COc1ccc2c(c1)CCc1cn3ncc(C#N)c3nc1-2
  A = 7% | B = 3.6 | C = -4%[15.4 µM] | D = 0 | E = 4% | F = · | G = 5
> CSCCC(NC(=O)c1ccccc1Cl)C(=O)N1CCCCC1 (stereo not given)
  A = · | B = · | C = 1% | D = · | E = 8% | F = -2.9% | G = ?
> O=CN(CCNc1ccccc1)c1ccccc1
  A = · | B = · | C = -47%[inhibitor] | D = -22 | E = -13% | F = -3.2% | G = ·
> C[C@H](CO)N1C[C@H](C)[C@@H](CN(C)Cc2ccc(Oc3ccccc3)cc2)Oc2ccc(NC(=O)Cn3cnnn3)cc2C1=O
  A = · | B = · | C = -6% | D = -11 | E = -1% | F = -1.5% | G = ·
> Cn1c(=O)c2c(nc(NC3CCCCC3)n2CC(O)COc2ccccc2)n(C)c1=O (stereo not given)
  A = -7% | B = 1.7 | C = -12% | D = -6 | E = 3% | F = -2.7% | G = 7
> COc1ccccc1N1C(=O)c2cccc3c(C(=O)O)ccc(c23)C1=O
  A = -2% | B = -3.0 | C = -35%[inhibitor] | D = -2 | E = 5% | F = -15% | G = 3
> Cc1ccc(-c2[nH]ncc2/C=N/n2c(COc3ccccc3)nc3ccccc3c2=O)cc1
  A = 21% | B = -3.1 | C = -6% | D = -1 | E = 1% | F = 1.7% | G = 1
> COc1ccc(S(=O)(=O)N2CCC(C(=O)NC3(C)CCS(=O)(=O)C3)CC2)cc1OC (stereo not given)
  A = · | B = · | C = -26% | D = -17 | E = 13% | F = -2.9% | G = -4
> CCc1ccc(OC)c(-c2csc(N)n2)c1
  A = 11% | B = 3.1 | C = -7%[15.4 µM] | D = 0 | E = -4% | F = · | G = 23
> C[C@@H]1C(=O)O[C@H]2[C@H]1CC[C@@]1(C)C(=O)C=C[C@@](C)(O)[C@H]21
  A = 30%[activator] | B = -1.4 | C = -34%[inhibitor] | D = 3 | E = 4% | F = 2.1% | G = -11
> CCCCN(CC)C(=O)Cc1ccccc1OC
  A = 3% | B = 0.3 | C = -6% | D = -8 | E = 1% | F = -2.2% | G = -1
> Cc1sc2nc(SCC(=O)NCCCO)n(-c3ccccc3)c(=O)c2c1C
  A = 19% | B = 1.9 | C = 16% | D = -3 | E = 5% | F = 0.2% | G = -1
> CS(=O)(=O)c1ccc(NC(=O)CN2C(=O)C3CCCCC3C2=O)cc1 (stereo not given)
  A = 15% | B = · | C = ? | D = 5 | E = 6% | F = -2.2% | G = 1
> O=S1(=O)c2ccccc2OC(COCc2ccccc2)CN1Cc1ccccc1 (stereo not given)
  A = · | B = · | C = · | D = 13 | E = -7% | F = -2.1% | G = ·
> CCOc1ccc(-n2c(SCc3cc(=O)oc4cc(C)c(C(C)C)cc34)nnc2-c2cccnc2)cc1
  A = -24% | B = 10 | C = 7%[15.4 µM] | D = 3 | E = -27% | F = 0.2% | G = -4
> CC(=C/c1ccccc1)/C=N/n1c(C)n[nH]c1=S
  A = -7% | B = 2.2 | C = -35%[inhibitor] | D = · | E = -2% | F = 0.0% | G = ?
> COC(=O)C1C(=O)NCC1c1ccc(OC)cc1 (stereo not given)
  A = ? | B = 1.7 | C = 32% | D = 0 | E = -2% | F = 0.9% | G = 6
> CCOC(=O)CNC(=O)N1CCC(CCOc2ccccc2)(C(=O)OCC)CC1
  A = -6% | B = 0.8 | C = -1%[15.4 µM] | D = 7 | E = 8% | F = 0.5% | G = 28
> N#Cc1nc(-c2cccs2)oc1N1CCOCC1
  A = 8% | B = 1.2 | C = 1% | D = 13 | E = 5% | F = 22% | G = 23
> COc1ccc(Cl)cc1-c1nc(SCC(=O)NC(C)C)n[nH]1
  A = 12% | B = 1.7 | C = 0% | D = 8 | E = 5% | F = · | G = 2
> COc1ccc(OCC(=O)NNC(=O)c2ccc3c(=O)n4c(nc3c2)CCC4)cc1
  A = 10% | B = · | C = -14% | D = -11 | E = -5% | F = -2.1% | G = 2
> CCOCc1nnc(NC(=O)c2cc(Cl)ccc2OC)s1
  A = 35µM* | B = -0.9 | C = 13% | D = -1 | E = 6% | F = -27% | G = -16
> CCCc1nc(SCC(=O)Nc2ccc(S(=O)(=O)N(C)C)cc2)c2ccccc2n1
  A = -4% | B = 3.0 | C = ? | D = -6 | E = 2% | F = 1.6% | G = 2
> CCOC(=O)c1ccc(Nc2nc(N)c3cc(OC)c(OC)cc3n2)cc1
  A = 79µM* | B = -0.4 | C = 20% | D = · | E = 0% | F = 32µM*! | G = -12

Results in Menin MLL FP FL, for some of the entries so far:
Structure,Menin MLL FP FL
CCOC(=O)CNC(=O)N1CCC(CCOc2ccccc2)(C(=O)OCC)CC1,0.8
N#Cc1nc(-c2cccs2)oc1N1CCOCC1,1.2

Screening data as filed in PubChem BioAssay.
